# Assay outcomes as filed in PubChem.
# KCNQ2 block – KCNQ2 potassium channel inhibitors, primary screen, cell-based, CHO-K1, FluxOR thallium flux, B-score (AID 2156); O88943; B-score at 10 µM; 20 min; stronger effect = lower value; only compounds with negative scores are shown here; some inactives read as strong as hits; 310,000 compounds, 1.1% hits;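 active = fluorescence ratio B-score at most minus 3 library SDs, with starting brightness B-score within 2 library SDs, cut at about -5.5 in these data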
# Target sequence (O88943 whole entry, looked up): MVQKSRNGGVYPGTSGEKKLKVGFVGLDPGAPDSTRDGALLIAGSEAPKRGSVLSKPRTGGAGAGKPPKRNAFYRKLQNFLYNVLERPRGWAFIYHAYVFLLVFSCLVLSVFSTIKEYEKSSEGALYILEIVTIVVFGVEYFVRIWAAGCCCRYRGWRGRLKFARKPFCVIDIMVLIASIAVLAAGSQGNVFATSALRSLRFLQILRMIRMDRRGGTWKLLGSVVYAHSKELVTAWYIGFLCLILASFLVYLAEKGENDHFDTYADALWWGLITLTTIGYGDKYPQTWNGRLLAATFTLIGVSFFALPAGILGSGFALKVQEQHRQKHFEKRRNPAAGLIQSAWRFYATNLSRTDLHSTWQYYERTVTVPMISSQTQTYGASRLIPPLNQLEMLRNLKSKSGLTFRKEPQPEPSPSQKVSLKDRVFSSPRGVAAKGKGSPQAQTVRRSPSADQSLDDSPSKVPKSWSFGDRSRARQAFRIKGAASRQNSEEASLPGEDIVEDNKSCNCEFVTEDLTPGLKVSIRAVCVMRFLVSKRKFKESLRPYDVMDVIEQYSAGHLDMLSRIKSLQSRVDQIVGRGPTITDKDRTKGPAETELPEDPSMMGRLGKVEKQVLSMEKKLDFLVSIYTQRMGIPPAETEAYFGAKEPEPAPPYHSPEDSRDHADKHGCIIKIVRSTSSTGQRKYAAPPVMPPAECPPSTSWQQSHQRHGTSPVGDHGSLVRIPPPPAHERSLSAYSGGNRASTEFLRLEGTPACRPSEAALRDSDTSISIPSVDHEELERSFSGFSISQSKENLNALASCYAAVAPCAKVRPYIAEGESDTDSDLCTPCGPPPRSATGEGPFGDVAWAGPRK
# KCNQ2 block baseline – second read-out of KCNQ2 block, no call of its own (marks repeat the call); B-score; measured here: initial fluorescence intensity artifact check;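 brightness before thallium and not channel activity; 0 = typical well and far values either way flag optical interference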
# An asterisk follows results filed as active; i = inactive.
KCNQ2 block,KCNQ2 block baseline,Structure
i,-0.22,CSCC[C@H](NC(=O)[C@@H]1Cc2ccccc2CN1)C(=O)Nc1ccc2c(c1)OCO2
i,0.16,CC1(C)CC(=O)C(C=NCC(N)=O)=C(O)C1
i,3.2,Nc1ccc(O)c2c1C(=O)c1ccccc1C2=O
i,0.51,CCOC(=O)c1c(S(=O)(=O)NCC(=O)Nc2ccccc2F)c(C)n(C)c1C
i,-0.11,CCN(CC)c1ccc(/C=N/NC(=O)c2ccoc2C)c(O)c1
i,-1,Cc1ccc(S(=O)(=O)Nc2n[nH]nc2C(=O)NC2CCCCC2)cc1
i,-0.99,CC(=O)Nc1ccc(S(=O)(=O)N(C)CC(=O)Nc2ccccc2N2CCCC2)cc1
i,-1.3,COc1ccc(/C=N/NC(=O)CCc2ccccc2)cc1O
i,-0.69,CC(=O)c1ccc(NC(=S)N2CCN(c3ccccn3)CC2)cc1
i,-0.32,COc1ccc(-c2nnc(COc3ccc(Br)cc3C)o2)cc1
i,-0.77,O=[N+]([O-])c1ccc(N/N=C/c2ccccc2)cc1
i,1.9,Clc1ccc(CNc2ncccn2)cc1
i,1.4,CCCCCCN1C=CC=C/C1=C\C=C(C#N)C#N
i,0.61,O=C(Nc1ccc(F)cc1)c1ccc(NC(=O)C2CCCO2)cc1 (stereo not given)
i,0.5,COc1ccc(C(=O)Nc2cccnc2Sc2ccc(Cl)cc2)cc1

# Single records (already shown). Order of screens: KCNQ2 block, KCNQ2 block baseline
# Shown for CSCC[C@H](NC(=O)[C@@H]1Cc2ccccc2CN1)C(=O)Nc1ccc2c(c1)OCO2 = i, -0.22
# Shown for CC(=O)c1ccc(NC(=S)N2CCN(c3ccccn3)CC2)cc1 = i, -0.69

# 15 neighbouring records out of the list so far:
KCNQ2 block,KCNQ2 block baseline,Structure
i,-0.22,CSCC[C@H](NC(=O)[C@@H]1Cc2ccccc2CN1)C(=O)Nc1ccc2c(c1)OCO2
i,0.16,CC1(C)CC(=O)C(C=NCC(N)=O)=C(O)C1
i,3.2,Nc1ccc(O)c2c1C(=O)c1ccccc1C2=O
i,0.51,CCOC(=O)c1c(S(=O)(=O)NCC(=O)Nc2ccccc2F)c(C)n(C)c1C
i,-0.11,CCN(CC)c1ccc(/C=N/NC(=O)c2ccoc2C)c(O)c1
i,-1,Cc1ccc(S(=O)(=O)Nc2n[nH]nc2C(=O)NC2CCCCC2)cc1
i,-0.99,CC(=O)Nc1ccc(S(=O)(=O)N(C)CC(=O)Nc2ccccc2N2CCCC2)cc1
i,-1.3,COc1ccc(/C=N/NC(=O)CCc2ccccc2)cc1O
i,-0.69,CC(=O)c1ccc(NC(=S)N2CCN(c3ccccn3)CC2)cc1
i,-0.32,COc1ccc(-c2nnc(COc3ccc(Br)cc3C)o2)cc1
i,-0.77,O=[N+]([O-])c1ccc(N/N=C/c2ccccc2)cc1
i,1.9,Clc1ccc(CNc2ncccn2)cc1
i,1.4,CCCCCCN1C=CC=C/C1=C\C=C(C#N)C#N
i,0.61,O=C(Nc1ccc(F)cc1)c1ccc(NC(=O)C2CCCO2)cc1 (stereo not given)
i,0.5,COc1ccc(C(=O)Nc2cccnc2Sc2ccc(Cl)cc2)cc1

# The list goes on:
KCNQ2 block,KCNQ2 block baseline,Structure
i,2.2,CC(C)C(C(=O)NC1CCCC1)N(CC1CCCO1)C(=O)CNS(=O)(=O)c1ccccc1 (stereo not given)
i,0.47,CCSc1nnc2nc3[nH]c4c(C)cccc4c3nn12
i,0.97,Cc1c(CCOC(=O)C23CC4(C)CC(C)(CC(C)(C4)C2)C3)sc[n+]1CC(=O)c1ccccc1
i,0.44,COc1ccc(C(=O)NC2CC(C)(C)Cc3c2cnn3-c2ccccc2C)o1 (stereo not given)
i,0.44,Cc1cccc(NS(=O)(=O)c2cc(C(=O)N3CCOCC3)ccc2Cl)c1
i,0.68,COc1ccc(CNC(=O)/C=C/C(=O)O)cc1
i,-1.3,O=C1c2ccccc2NC(c2cccc(F)c2)N1Cc1ccccc1 (stereo not given)
i,-0.69,COc1ccccc1S(=O)(=O)n1cc(Cc2ccccc2)c(N)n1
i,-0.08,Cc1cc(NC(=O)CCSc2nc(-c3ccco3)cc(C(F)(F)F)n2)n(-c2ccccc2)n1
i,3.2,COc1ccc(OC)c(NC(=S)N2CCN(c3ccccn3)CC2)c1
i,-0.32,CC(C)c1ccc(N=C2N=C(N)c3ccccc32)cc1
i,-0.05,Cc1ccc(SC(C)C(=O)N2CCC(C(N)=O)CC2)cc1 (stereo not given)
i,-0.2,CCCC(=O)Nc1ccc(C(=O)NNC(=S)NC(=O)c2ccc(Br)o2)cc1
i,-0.76,CN(C)C(=O)C(CCN1CCC(O)(c2ccc(Cl)cc2)CC1)(c1ccccc1)c1ccccc1
i,-1.5,Cc1nc2ccc([N+](=O)[O-])cc2c(=O)n1Cc1ccc([N+](=O)[O-])cc1
i,0.21,CCCCn1c(N)c(N(CCOC)C(=O)c2cc3c(s2)CCC(C)C3)c(=O)[nH]c1=O (stereo not given)
i,0.11,O=C(c1cccc(S(=O)(=O)NCc2ccccc2)c1)N1CCN(Cc2ccccc2)CC1
i,0.27,CCn1nnc(NC(=O)c2c(OC)cccc2OC)n1
i,20,CC(C)CC[n+]1ccccc1/C=C/c1ccc(N(C)C)cc1
i,-0.02,C[C@H](N)c1nnc(SCC(=O)N(C)C)o1
i,1.5,S=C(NCC1CCCO1)N1CCN(c2ccc(Cl)c(Cl)c2)CC1 (stereo not given)
i,-1.1,Cc1ccc(C)c(NC(=O)NC2CCCCCCC2)c1
i,0.73,CCOc1ccc(-c2cc(C(=O)NCCCN3CCOCC3)c3ccccc3n2)cc1
i,0.05,CCC(CC)=NNc1ccc(S(N)(=O)=O)cc1[N+](=O)[O-]
i,0.86,Cc1ccc(S(=O)(=O)N2CCOC23CCN(S(=O)(=O)c2c(C)cc(C)cc2C)CC3)cc1
i,-2,CCOC(=O)c1cnc2c(C)cccc2c1NCc1ccco1
i,0.81,CCc1sc(C(=O)NCCc2ccc(S(N)(=O)=O)cc2)cc1Br
i,-0.72,CCSC1=C(C#N)C(c2ccc(C)s2)CC(=O)N1 (stereo not given)
i,0.7,Cn1cccc1CC(=O)NNC(=S)Nc1ccc(Cl)cc1
i,0.06,COc1cccc(-c2noc(-c3ccc4c(c3)OCO4)n2)c1
i,0.05,S=C(NCc1ccco1)N1CCN(c2nc(-c3ccc(Cl)cc3)cs2)CC1
i,-2.3,COC(=O)C1=C(C)N(Cc2ccco2)C(=O)C1
i,-0.14,CCCCCCCn1c(=O)c(C(=O)OC)c(N)c2ccccc21
i,-2.3,O=C(CCN1C(=O)/C(=C/c2ccccc2Cl)SC1=S)NC1C=CS(=O)(=O)C1 (stereo not given)
i,-1.1,CCOc1ccc(C(=O)CCC(=O)Nc2ccc(C)cn2)cc1
i,-0.02,CN(C)/C=C(\c1cnc(Cl)s1)S(=O)(=O)c1ccccc1
i,-0.6,O=C(Cc1ccccc1Cl)N1CCN(c2ccccn2)CC1
i,1.5,Cc1ccc(C(C(=O)NC2CCCC2)N(Cc2ccc(F)cc2)C(=O)c2csnn2)o1 (stereo not given)
i,0.85,N#Cc1nc(-c2ccccc2Cl)oc1N1CCCCC1
i,0.05,CCCC1(CCC)NC(=O)N(CC(=O)Nc2cccc(OC)c2)C1=O
i,0.03,Fc1ccc(-c2n[nH]c(=S)c3ccccc23)cc1
i,0.95,O=C(NCCc1ccc(Cl)cc1)C1CCCN(S(=O)(=O)N2CCCCCC2)C1 (stereo not given)
i,1.3,COc1cc(NC(=O)c2ccccc2[N+](=O)[O-])ccc1NC(=O)C(C)C
i,0.08,Cc1cccc(C(=O)c2c(N)sc3c2CCCC3)c1
i,0.32,Cn1c2c(c(=O)n(C)c1=O)[C@@]1(C(=O)Nc3ccccc31)C(C#N)=C(N)O2
i,-0.87,CSc1cnn(Cc2ccccc2)c(=O)c1SCc1ccccc1
i,0.58,COc1ccccc1CNS(=O)(=O)c1cc(-c2cc(C)no2)ccc1C(C)C
i,0.4,O=C(COc1nnc2ccccn12)N1CCN(S(=O)(=O)c2ccccc2)CC1
i,-0.02,COCCNC(=O)C(=O)NCC1OCCN1S(=O)(=O)c1ccc(C)cc1 (stereo not given)
i,-0.76,COc1cccc(-c2nn(-c3ccccc3)cc2CN(C)C(C)c2ccncn2)c1 (stereo not given)
i,-0.73,OCC[C@@H]1C[C@@H](O)[C@H](O)[C@]2(Cc3ccccc3O2)O1
i,-1.2,COCCNC(=O)CN1CCC(NC(=O)c2ccco2)CC1
i,1.6,CC1CCN(c2oc(-c3ccccc3F)nc2C#N)CC1
i,0.05,O=C(CSc1nc2ccsc2c(=O)n1CC1CCC(C(=O)O)CC1)c1ccc(Cl)cc1 (stereo not given)
i,-0.86,C/C(=N\NC(=O)c1nnn(-c2nonc2N)c1CN(C)c1ccccc1)c1cccc(O)c1
i,-0.67,O=C(O)c1ccc2c(c1)[C@@H]1C=CC[C@@H]1[C@H](c1ccccn1)N2
i,-0.03,Cc1ccc(C(=O)c2cc3ccccc3o2)cc1[N+](=O)[O-]
i,0.47,Cc1ccc(SCC(=O)c2cc(C)c(O)c(C)c2)cc1
i,-1.9,CCOc1ccccc1N(CC(=O)N1CCCCCC1)S(=O)(=O)c1ccc(C)cc1
i,0.2,CCCCNC(=O)CN1C(=O)C(CC)Oc2ccc(Cl)cc21 (stereo not given)

# (more compounds)
KCNQ2 block,KCNQ2 block baseline,Structure
i,-0.01,COc1ccc(C(=O)Oc2ccc[nH]c2=O)cc1
i,-0.67,CC(C)(C)OC(=O)NCCc1nnc(SCc2cccc(Cl)c2)o1
i,0.95,CN(C)c1nc(-c2cccs2)cc(C(F)(F)F)c1C#N
i,-1.4,O=C(N/N=C/c1ccc([N+](=O)[O-])o1)c1cc2ccccc2o1
i,1.9,CCOc1ccc(-c2csc(Cn3c(CN4CCN(C)CC4)nc4ccccc4c3=O)n2)cc1
i,0.39,O=C(NCCCc1ccccc1)C1CCC(CNc2c(N3CCCCC3)c(=O)c2=O)CC1 (stereo not given)
i,0.13,CSc1nc2c(c(-c3ccccc3)c1C#N)CCC2
i,1.8,Cc1ccc(NC(=O)CSc2nncc3ccccc23)cc1
i,0.05,COc1ccccc1N1CCN(CCCCOc2cccc3ccccc23)CC1
i,-1.4,CCN1C(=O)[C@@H]2[C@@H](c3ccc(SC4CCCCC4)cc3)N3CCC[C@@]3(C(=O)OC)[C@@H]2C1=O
i,1.2,Cc1ccc(OCC(=O)N/N=C/C=C/c2ccco2)cc1C
i,0.89,COc1ccc(C2(CNC(=O)Cc3ccc(OC)c(OC)c3)CCCC2)cc1
i,1.1,COc1ccc(CNC(=O)CCSCc2ccc(C)cc2)cc1
i,-1.6,COc1ccc(C2C(C(=O)c3sc(C)nc3C)=C(O)C(=O)N2CCN(C)C)cc1 (stereo not given)
i,0.16,Nc1nc(NCC2CCCO2)nc(Nc2cccc(F)c2)c1[N+](=O)[O-] (stereo not given)
i,1.9,CCOc1ccc(NC(=O)CSc2nnc(-c3ccncc3)n2CC2CCCO2)cc1 (stereo not given)
i,-2,CCN(CC)CCN1C(=O)C(O)=C(C(C)=O)C1c1ccc(OC)c(OC)c1 (stereo not given)
i,2.4,CCCCN(C(=O)CCC(=O)Nc1cc(C)on1)C(C(=O)NC1CCCC1)c1ccccc1OCC (stereo not given)
i,-1.2,Cc1ccc(C(=O)Nc2ccc(F)cc2F)o1
i,1.2,CCN(CC)CCCN1C(=O)C(=O)/C(=C(/O)c2ccc(C)cc2)C1c1ccccn1 (stereo not given)
i,1.4,Cc1cccc(NC(=O)CCS(=O)(=O)c2ccc(Cl)cc2)c1
i,0.03,Cc1cc2cc3c(cc2nc1SCc1ccc(C(=O)O)cc1)OCCO3
i,-2.7,CC(Sc1sc(=S)sc1SC(C)C(=O)O)C(=O)O (stereo not given)
i,0.92,COc1ccc(CN2CCNC(=O)C2CC(=O)N2CCCN(C(C)=O)CC2)c(OC)c1 (stereo not given)
i,0.6,Nc1nonc1-n1nnc(C(=O)N/N=C/c2cc(Br)cs2)c1-c1ccccc1
i,0.52,O=C(COC(=O)c1ccc(F)cc1)NCCCc1ccccc1
i,-0.1,CN1C(C(=O)Nc2ccc(OC(F)(F)F)cc2)=CC(c2cccs2)=NS1(=O)=O
i,-2.5,O=C(NCCC1=CCCCC1)C(=O)NCc1ccccc1
i,0.98,CCOC(=O)N1CCC(NC(=O)c2ccc(CS(=O)c3ccc(Cl)cc3)o2)CC1 (stereo not given)
i,0.01,CCn1c(O)c(N=NC(=O)c2cccc(S(=O)(=O)N3CCCCC3)c2)c2ccccc21
i,0.27,CC(=O)Nc1ccc(NC(=O)CN2C(=O)COc3ccc(S(=O)(=O)N4CCOCC4)cc32)cc1
i,-0.57,O=C(Nc1ncccc1O)c1cccc(S(=O)(=O)N2CCc3ccccc32)c1
i,0.51,CCC(C)NC(=O)CSc1nc2scc(-c3ccccc3)c2c(=O)[nH]1 (stereo not given)
i,-0.68,CC(CNC(=O)c1ccc(C#N)cc1)NC(=O)c1ccc(C#N)cc1 (stereo not given)
i,-1.2,COc1ccc(Cl)cc1NC(=O)C1Cc2ccccc2CN1S(C)(=O)=O (stereo not given)
i,0.7,O=C(C1CC1)N1CCN=C1SCc1ccccc1Cl
i,-1.1,Cc1cc(NC(=O)CC(C)C)c(=O)n(Cc2cccc(F)c2)c1
i,0.17,CCCCSc1nnc(CNC(=O)C23CC4CC(CC(C4)C2)C3)n1Cc1ccccc1
i,-0.73,CC(C)Cc1cc(C(=O)N2CCCC(CO)(Cc3ccc(F)cc3F)C2)n[nH]1 (stereo not given)
i,-0.09,CSCCC(NC(=O)c1ccc(Cl)cc1Cl)C(=O)OCC(N)=O (stereo not given)
i,-1.4,COc1cccc2sc(Nc3nc(-c4cc5ccccc5oc4=O)cs3)nc12
i,0.13,COc1ccc(-c2cc(C(=O)NN)[nH]n2)cc1
i,3.5,O=C(Nc1ccc2c(c1)OCO2)N1CCN(C/C=C/c2ccccc2)CC1
i,0.81,COc1cccc(N2CCN(C(=S)Nc3ccccc3OC)CC2)c1
i,-0.84,Cc1ccc(OCc2nnc(SCC(=O)Nc3ccc(N4CCOCC4)cc3)o2)cc1
i,2.7,COc1ccc(NC(=O)CN(c2ccccc2F)S(=O)(=O)c2ccc(C)cc2)c(OC)c1
i,-0.27,CC1CC2C3CCC4=CC(=O)C=CC4(C)C3(F)C(O)CC2(C)C1(O)C(=O)CO (stereo not given)

# An excerpt (hit frequency here may not be typical).
